High-throughput results (PubChem BioAssay)
EPAC1 ag: qHTS for Agonist of cAMP-regulated guanine nucleotide exchange factor 3 (EPAC1): primary screen. actives 0.073% (n = 360,000). EPAC1 agonist qHTS, biochemical assay; response scale: 100% = response to 6.5 mM cAMP. AID 720707, 2013. Rap guanine nucleotide exchange factor 3 (Homo sapiens), O95398. Potency, µM (top dose mostly 154 µM), without a hit: at the top dose activation, most hits filed as activators; note: potency is the fitted concentration of half-maximal effect; nearly all actives have a fitted effect of over 60% in size
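Multi-concentration qHTS readout: loss of Rap1B-bound BODIPY-GDP fluorescence driven by 100 nM EPAC1 with excess GDP (50 uM), monitored kinetically at room temperature; agonist response expressed relative to 6.5 mM cAMP.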
PLK1 PBD block: qHTS for Inhibitors of PLK1-PDB (polo-like kinase 1 - polo-box domain): Primary Screen; Serine/threonine-protein kinase PLK1 (Homo sapiens), P53350; actives 2.8% (n = 360,000); Plk1 PBD binding of FITC phosphopeptide, fluorescence polarization; Potency, µM, for inactives: max response, negative = inhibition, usual class: inhibitors; note: potency is the fitted concentration of half-maximal effect; series mostly up to about 57 µM; % is set by controls: 0 for no effect and ±100 for the full control effect; nearly all actives have a fitted effect of over 65% in size
Target sequence (P53350 whole entry, looked up, the tested form may be a part): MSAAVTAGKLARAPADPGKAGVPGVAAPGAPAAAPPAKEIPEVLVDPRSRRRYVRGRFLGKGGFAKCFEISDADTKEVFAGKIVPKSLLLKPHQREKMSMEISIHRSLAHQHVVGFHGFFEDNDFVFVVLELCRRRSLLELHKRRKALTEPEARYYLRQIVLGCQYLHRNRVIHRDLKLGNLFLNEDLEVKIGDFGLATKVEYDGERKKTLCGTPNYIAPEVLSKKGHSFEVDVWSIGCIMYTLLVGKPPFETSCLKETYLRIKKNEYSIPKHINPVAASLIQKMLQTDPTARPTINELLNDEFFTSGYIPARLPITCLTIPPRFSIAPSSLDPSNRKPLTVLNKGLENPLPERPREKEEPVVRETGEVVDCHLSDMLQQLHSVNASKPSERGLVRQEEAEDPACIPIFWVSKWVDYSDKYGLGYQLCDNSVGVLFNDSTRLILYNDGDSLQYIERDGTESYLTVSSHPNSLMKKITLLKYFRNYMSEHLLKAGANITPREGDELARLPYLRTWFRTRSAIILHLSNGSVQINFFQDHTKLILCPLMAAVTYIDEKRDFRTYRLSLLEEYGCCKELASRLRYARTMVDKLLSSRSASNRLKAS
PI5P4K alpha inh: qHTS for Inhibitors of phosphatidylinositol 5-phosphate 4-kinase (PI5P4K) | Phosphatidylinositol 5-phosphate 4-kinase type-2 alpha (Homo sapiens), P48426 | PI5P4Kalpha enzyme, ADP-Glo luminescence, 60 min; active compounds read low | max response, % | actives 1.2% (n = 330,000) | AID 652105, 2013; active = max response of -50% or lower; inconclusive = between -30% and -50%; inactive = -30% or higher; note: value at the top dose of about 77 µM; % is set by controls: 0 for no effect and ±100 for the full control effect
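Quantitative HTS of the MLSMR library against PI5P4Kalpha with substrate. ATP added last at 5 microM final; room temperature, 60 minutes. Remaining ATP depleted, ADP converted and read as luminescence.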
EPAC1 antag: qHTS for Antagonist of cAMP-regulated guanine nucleotide exchange factor 3 (EPAC1): primary screen | Rap guanine nucleotide exchange factor 3 (Homo sapiens), O95398 | EPAC1 GEF assay, Rap1b-BODIPY-GDP exchange fluorescence | Potency, µM (titrated, usually from 115 µM), inactives show at the top dose activity change, negative = inhibition, hits mostly inhibitors | actives 0.14% (n = 360,000);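 note: potency is the fitted concentration of half-maximal effect; plate controls were vehicle for no effect and positive control for full effect; nearly all actives have a fitted effect of over 50% in size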
IL-2 act: qHTS of IL-2 Activators. IL-2 activation reporter assay, cell-based qHTS; stimulated with anti-CD3/CD4/CD28 beads; in transgenic mouse T cells. activation, % (series mostly up to about 46 µM). actives 0.065% (n = 360,000); in the data active = activation above about 50%; inconclusive = mostly about 30% to 49%; note: 0% is about no effect
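Screening format: compound pinned onto unstimulated transgenic mouse T cells, 60 min incubation, then anti-CD3/anti-CD4/anti-CD28 bead stimulation for 18 hours at 37 degrees C, followed by EGFP and DsRed detection.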
GLP1R inv ag: qHTS of GLP-1 Receptor Inverse Agonists (Inhibition Mode); Glucagon-like peptide 1 receptor (Homo sapiens), P43220; actives 1.6% (n = 410,000); HEK293 GLP-1R CRE-luciferase, luminescence, 24 h; GLP-1R form is constitutively active; Potency, µM (titrated, usually from 38.3 µM), without a hit: at the top dose activity change, negative = inhibition, most hits filed as inhibitors; AID 624417, 2012; note: potency is the fitted concentration of half-maximal effect; % is set by controls: 0 for no effect and ±100 for the full control effect; nearly all actives have a fitted effect of over 55% in size
Target sequence (P43220 whole entry, looked up): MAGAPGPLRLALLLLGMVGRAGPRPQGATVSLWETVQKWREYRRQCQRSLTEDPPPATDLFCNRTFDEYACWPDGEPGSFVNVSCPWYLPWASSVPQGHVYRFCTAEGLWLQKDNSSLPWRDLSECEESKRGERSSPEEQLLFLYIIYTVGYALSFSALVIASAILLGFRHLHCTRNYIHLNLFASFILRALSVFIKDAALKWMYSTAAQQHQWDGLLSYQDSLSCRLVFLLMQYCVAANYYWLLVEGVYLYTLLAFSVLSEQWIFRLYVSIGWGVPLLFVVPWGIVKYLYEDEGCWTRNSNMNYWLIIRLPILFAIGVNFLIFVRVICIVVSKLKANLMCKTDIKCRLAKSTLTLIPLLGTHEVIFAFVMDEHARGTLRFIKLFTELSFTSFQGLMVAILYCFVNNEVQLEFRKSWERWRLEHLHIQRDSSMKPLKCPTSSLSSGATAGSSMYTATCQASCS
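Using stably transfected HEK293 (constitutively active GLP-1R, cAMP-luciferase reporter), compounds were incubated 24 hr and luciferase measured by luminescence.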
GLP1R cytotox: qHTS of GLP-1 Receptor Inverse Agonists: Cytotox Screen; Potency, µM (doses to about 38.3 µM), inactives show top-dose activity change, negative = inhibition, usual class: inhibitors; HEK293 cAMP-luciferase reporter cells, luminescence, 24 h; actives 0.13% (n = 410,000);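 note: loss of luciferase light is scored as toxicity; potency is the fitted concentration of half-maximal effect; % is set by controls: 0 for no effect and ±100 for the full control effect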
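Luminescence readout: signal drop marks cytotoxicity. Plated cells grew 12 h at 37 °C, 5% CO2, received 23 nL compound for 24 h, then got luciferase reagent, read after 12 min at RT.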
GLP1R ag: qHTS of GLP-1 Receptor Agonists; actives 0.007% (n = 380,000); AID 624172, 2012; Potency, µM (highest dose often 45.6 µM), inactives show at the highest dose activation, usual class: activators; Glucagon-like peptide 1 receptor (Homo sapiens), P43220; HEK293 GLP-1R CRE-luciferase, luminescence, 4-6 h; cells express a hypersensitive GLP-1R form; note: potency is the fitted concentration of half-maximal effect; % of control where 0% means no effect
The depositor's hits bear a star; ? = inconclusive; nt = not tested or not shown; & = joins results of further samples; [ ] = another dose, or the depositor's remark. Unless noted, calls come from the whole dose curve; as a rule, active = well fitted curve in the direction sought with a large enough effect; inconclusive = small, poorly fitted or top-dose-only effect, or another doubt; inactive = no such curve, though single readings can be large; an effect the other way counts as inactive or inconclusive. The list is partial; the hit share may differ from the screen's.

Each structure is followed by: IL-2 act | EPAC1 antag | EPAC1 ag | GLP1R cytotox | PLK1 PBD block | PI5P4K alpha inh | GLP1R inv ag | GLP1R ag
- CCCOC(=O)Cn1cnc2scc(-c3ccc(OC)cc3)c2c1=O
  0.3 | ? | 7% | 2% | -7% | 6 | -28% | -1%
- CCC(=O)OCCn1c(=O)c2ccccc2c2ccccc2c1=O
  1.9 | -2% | -5% | 8% | 3% | -9 | -3% | 2%
- CCS(=O)(=O)n1c(Cc2cccs2)nc2ccccc21
  0.4 | -26% | 0% | 3% | -17% | 0 | 12% | -4%
- O=C(CCN1CCN(c2ccc(F)cc2)CC1)Nc1ccc(F)cc1
  0.5 | -2% | -6% | -8% | -4% | -18 | -18% | 0%
- COc1ccccc1N(CC(=O)NC1CC2CCC1C2)S(=O)(=O)c1ccc(C)cc1 (centres undefined)
  -0.3 | ? | 3% | 12% | -2% | 2 | ? | 13%
- Cc1ccc(NC(=O)c2sc(-n3nc(C)c(Cc4ccc5c(c4)OCO5)c3C)nc2C)cc1Cl
  nt | nt | nt | 1% | nt | nt | 3% | nt
- C/C(=N\NC(=O)c1ccccc1O)c1c(O)cc(C)oc1=O
  -4.7 | 15% | -1% | -9% | -1% | nt | 5% | 1%
- CCc1ccc(N(CC(=O)N2CCN(Cc3ccccc3)CC2)S(C)(=O)=O)cc1
  0.8 | 10% | -2% | -1% | 1% | -9 | -24% | 2%
- COc1cc(CO)c(Br)cc1OCC(N)=O
  -1.8 | 4% | 2% | 1% | -13% | 1 | 5% | 7%
- CC1(C)Cc2nc(-c3ccccc3)nc(SCC(O)CO)c2CO1 (centres undefined)
  -0.5 | -7% | 10% | -3% | -10% | -5 | -7% | 2%
- Cc1cc(OCCn2c(CCNC(=O)C3CCCCC3)nc3ccccc32)ccc1Cl
  nt | nt | nt | 1% | nt | nt | 1% | nt
- COc1ccccc1-c1n[nH]c(=S)n1Cc1ccccc1
  0.8 | -12% | 2% | -8% | -12% | -10 | ? | -6%
- CCOc1ccc(NC(=O)COC(=O)CC2CC3CCC2C3)cc1 (centres undefined)
  1.8 | -9% | 2% | -1% | 1% | 5 | 16% | -3%
- O=C1CN(C(=O)CSc2nnnn2-c2ccc(Cl)cc2)c2ccccc2N1
  1.1 | -26% | 5% | -7% | -4% | -6 | -9% | 1%
- COc1ccc(NC(=O)c2c(Cl)cnn2C)c(C)c1
  0.4 | -6% | 4% | -9% | -1% | 1 | 21% | -5%
- Cn1nnnc1SCCCNCc1cc(Br)ccc1OCc1ccccc1F
  nt | nt | nt | -2% | nt | nt | ? | nt
- O=C(Nc1ccc2oc(=O)ccc2c1)c1ccco1
  0.4 | 4% | 7% | 6% | 3% | nt | 155%[activator] | 8%
- COCCCn1c(=O)c2ccccc2c2ccccc2c1=O
  0.1 | 7% | -6% | -14% | -1% | 1 | 6% | 1%
- CCC1CCCCN1CCCNC(=O)CCCNC(=O)Cn1cnc2sc3c(c2c1=O)CCCC3 (centres undefined)
  -1.6 | -4% | -1% | -4% | 0% | 1 | -25% | -1%
- CC(C)(C)OC(=O)NCC1CCC(C(=O)NC[C@H](CC(=O)O)c2ccc(Cl)cc2)CC1 (some centres undefined)
  0.2 | -13% | -7% | 1% | -6% | -2 | -3% | 1%
- N#Cc1cnn2cc(-c3ncc(C(F)(F)F)cc3Cl)cnc12
  -0.2 | 6% | 5% | 8% | -8% | nt | 1% | 5%
- Cc1ccc(-n2nnnc2SCC(=O)N2CC(=O)Nc3ccccc32)cc1
  1.4 | 0% | 7% | -21% | 5% | -13 | 2% | -1%
- Cc1ccccc1NC(=O)C1CC(Cl)=CCC1C(=O)O (centres undefined)
  -1.9 | 0% | -1% | 2% | 2% | nt | 0% | 0%
- C[C@H](NC(=O)c1nc[nH]c1C(=O)N[C@@H](C)C(=O)OC(C)(C)C)C(=O)OCc1ccccc1
  -2.9 | ? | -15% | 4% | -30% | 9 | 4% | -1%
- COc1cc2nc(NCc3ccccc3Cl)n3nc(-c4cccnc4)nc3c2cc1OC
  nt | nt | nt | 1% | nt | nt | 10% | nt
- COc1cc(Cl)c(NC(=O)CCS(=O)(=O)c2ccc3c(c2)NC(=O)CO3)c(OC)c1
  nt | nt | nt | 0% | nt | nt | 14% | nt
- COC(=O)c1ccc(OC(=O)c2nn(C)cc2Cl)c(OC)c1
  -1.3 | 0% | 2% | 7% | -2% | nt | 0% | 19%
- C=CCn1c(SCc2ccc3nonc3c2)nnc1-c1cccs1
  -1.6 | -4% | 1% | 67%[activator] | -25% | 2 | -32% | 14%
- COc1ccccc1CNC(=O)COC(=O)COc1ccccc1F
  1.8 | 5% | -5% | 2% | -6% | -5 | -5% | -9%
- Nc1ccn([C@@H]2CS[C@H](CO)O2)c(=O)n1
  nt | nt | nt | nt | nt | nt | nt | -2%&8%

Single records, from the list above. Screens in order: IL-2 act, EPAC1 antag, EPAC1 ag, GLP1R cytotox, PLK1 PBD block, PI5P4K alpha inh, GLP1R inv ag, GLP1R ag
Entry for CCCOC(=O)Cn1cnc2scc(-c3ccc(OC)cc3)c2c1=O : 0.3, ?, 7%, 2%, -7%, 6, -28%, -1%
Entry for COc1ccc(NC(=O)c2c(Cl)cnn2C)c(C)c1 : 0.4, -6%, 4%, -9%, -1%, 1, 21%, -5%

Further entries follow:
Each structure is followed by: IL-2 act | EPAC1 antag | EPAC1 ag | GLP1R cytotox | PLK1 PBD block | PI5P4K alpha inh | GLP1R inv ag | GLP1R ag
- CCCCCCCC(=O)N/N=C(/C)c1c(O)cc(C)oc1=O
  -2.4 | 6% | -4% | -3% | -1% | nt | 0% | -8%
- COc1ccccc1NC(=O)CC(c1ccc(OC(C)C)cc1)c1ccccc1OC (centres undefined)
  -3.6 | 0% | -2% | 5% | -7% | -4 | 11µM* | -2%
- Cn1nnnc1SCCCNCc1ccccc1OCc1ccccc1F
  nt | nt | nt | 5% | nt | nt | ? | nt
- Cn1c(CCNS(=O)(=O)c2ccccc2)nnc1SCc1cccnc1
  0.5 | -8% | 0% | 15% | -7% | -3 | 13% | 2%
- O=C(/C=C/NNC(=O)c1ccccc1)c1ccc([N+](=O)[O-])cc1
  -1.0 | -2% | 8% | 4µM* | -13% | -19 | ? | 3%
- CCCNC(=O)C1(S(=O)(=O)c2ccccc2)CC=CC1
  -2.5 | 7% | 0% | -17% | -16% | -1 | 3% | 5%
- Cc1nn(Cc2c(F)c(F)c(F)c(F)c2F)c(C)c1NC(=O)c1c([N+](=O)[O-])c(C)nn1C
  0.3 | -5% | -8% | 1% | 1% | nt | 0% | 2%
- CCOC(=O)C1CCN(C(=O)c2cc3cc(Cl)ccc3[nH]2)CC1
  -0.8 | -10% | -8% | -16% | ? | 1 | -4% | 15%
- CN(CC(=O)Nc1ccc(F)c(F)c1F)C(=O)c1ccc2c(c1)S(=O)(=O)N=C1CCCCCN12
  3.0 | -7% | 0% | ? | -15% | 8 | -11% | 5%
- CC(C)Cn1c(=O)c2ccccc2c2ccccc2c1=O
  -1.9 | -2% | 24% | -7% | -5% | nt | -6% | 8%
- O=C1CSc2ccc(S(=O)(=O)CCC(=O)NC3CCCCC3)cc2N1
  -0.2 | -1% | 12% | -2% | -15% | -6 | 7% | 3%
- Cc1cccc(C(=O)NN/C=C/C(=O)c2ccccc2)c1
  2.8 | -23% | -12% | ? | -14% | -9 | ? | -3%
- COc1ccc(NC(=O)C(c2cc3c(cc2[N+](=O)[O-])OCO3)N(C)Cc2ccccc2)cc1 (centres undefined)
  -3.1 | -28% | 18% | 18% | 0% | 19 | ? | 11%
- O=C(Nc1ccc2c(c1)Cc1ccccc1-2)c1ccco1
  -0.1 | -4% | 8% | -10% | -2% | nt | -26% | 9%
- Cc1cc(=O)oc2cc(OCC(O)CN3CCN(c4ccc(F)cc4)CC3)ccc12 (centres undefined)
  -1.3 | 8% | -7% | -12% | -2% | nt | 2% | -2%
- CC(c1ccccc1)C1CC(=O)N(CC(=O)O)C1=O (centres undefined)
  -3.2 | -1% | 9% | 15% | -4% | nt | 14% | 2%
- CS(=O)(=O)Nc1ccc(C(=O)NCCSC2CCCCC2)cc1
  -1.6 | 6% | 1% | -29% | -14% | nt | 0% | 2%
- Cc1cc(C)n(C(=O)c2ccc(C)c(S(=O)(=O)N3CCCC3)c2)n1
  -0.4 | 3% | 10% | 1% | -10% | 0 | 8% | 2%
- Cc1c(-c2ccccc2)[nH]n2c(=O)c3c(nc12)CCCC3
  0.1 | -22% | 2% | 10% | -7% | 8 | -1% | -4%
- COc1ccccc1NCC(=O)N/N=C/C=C/c1ccccc1
  -0.9 | -9% | 14% | -22% | -8% | -12 | -29% | 10%
- O=C(N1CCOCC1)N1CCOCC1
  -1.6 | 14% | -6% | 3% | -6% | -7 | 8% | -17%
- COCCNC(=S)N1CCN(C(=O)C(=O)Nc2ccc(C(=O)OC)cc2)CC1
  -0.1 | -21% | -6% | -17% | -2% | -3 | 0% | 1%
- c1ccc(C2C3=C(CCCC3)Nc3ncnn32)cc1 (centres undefined)
  -2.0 | -17% | 7% | 5% | -15% | nt | 14% | 1%
- Cc1cccc(CCNC(=O)CCc2c(C)nc3c4c(C)cc(C)nc4nn3c2C)c1
  nt | nt | nt | -3% | nt | nt | -4% | nt
- CCOCC(=O)Nc1ccc(F)c(F)c1
  -4.6 | 0% | 7% | -5% | -10% | -3 | 0% | -3%
- O=C1CCCC(O)=C1C=Nc1cccc(C(F)(F)F)c1
  0.2 | -3% | 6% | 6% | 1% | 1 | 1% | -2%
- CS(=O)(=O)N(CC(=O)N1CCCC1)c1ccc(OCc2ccccc2)cc1
  -3.6 | 26% | 1% | 12% | ? | nt | 0% | 1%
- CC(C(=O)NC(C)(C)C)N(Cc1cccs1)C(=O)CCN1CCc2ccccc21 (centres undefined)
  -4.9 | -11% | -1% | -6% | -6% | 4 | 10µM* | 13%
- O=C(NCCOc1nc(N2CCCCC2)nc(N2CCCCC2)n1)Nc1ccccc1
  -1.2 | 5% | -13% | -9% | -7% | -3 | ? | 8%
